Compound activity: PubChem, National Center for Advancing Translational Sciences (NCATS)
2A StopGo: FMDV 2A StopGo reporter, luciferase signal | human cells with a luciferase reporter of 2A StopGo recoding; control for the full effect not named in the record | Potency, µM (highest dose often 57.9 µM), without a hit: at the top dose signal change, negative = less light | 410,000 compounds, 1.2% hits | AID 1159524; active = well fitted falling curve with a large enough effect; inconclusive = small, poorly fitted or top-dose-only effect; inactive = no such curve, though single readings can be large or run the other way; tested in HEK293T cells; further: on the % scale 0 is the no-effect control and ±100 the full control effect; nearly all actives have a fitted effect of over 45% in size; luciferase light after 4 h
LASV entry inh: blocks Lassa virus binding to or entry into cells | AID 540256 | 300,000 compounds, 1.2% hits | Lassa virus pseudotype entry inhibition, cell reporter; control for the full effect not named in the record | Potency, µM (titrated, usually from 37.9 µM), for inactives: at the highest dose activity change, negative = inhibition, hits mostly inhibitors; active means well fitted inhibition curve with a large enough effect; inconclusive means small, poorly fitted or top-dose-only effect, or effect the other way; inactive means flat fitted curve, though single readings scatter; tested in HEK293 cells; further: on the % scale 0 is the no-effect control and ±100 the full control effect; nearly all actives have a fitted effect of over 50% in size; luciferase read-out
Cruzain noTriton: blocks cruzain activity in detergent-free assay. purified cruzain, Z-FR-AMC fluorescence, no detergent. 200,000 compounds, 2.3% hits. Potency, µM, for inactives: max response, negative = inhibition, most hits filed as inhibitors; active means well fitted curve in the direction sought with a large enough effect; inconclusive means small, poorly fitted or top-dose-only effect, or another doubt; inactive means no such curve, though single readings can be large; an effect the other way counts as inactive or inconclusive;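 further: plate controls were enzyme without inhibitor for no effect and buffer without enzyme for full effect; nearly all actives have a fitted effect of over 40% in size; top concentration of the series not given in the record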
Target sequence (P25779 123-467 limits assumed): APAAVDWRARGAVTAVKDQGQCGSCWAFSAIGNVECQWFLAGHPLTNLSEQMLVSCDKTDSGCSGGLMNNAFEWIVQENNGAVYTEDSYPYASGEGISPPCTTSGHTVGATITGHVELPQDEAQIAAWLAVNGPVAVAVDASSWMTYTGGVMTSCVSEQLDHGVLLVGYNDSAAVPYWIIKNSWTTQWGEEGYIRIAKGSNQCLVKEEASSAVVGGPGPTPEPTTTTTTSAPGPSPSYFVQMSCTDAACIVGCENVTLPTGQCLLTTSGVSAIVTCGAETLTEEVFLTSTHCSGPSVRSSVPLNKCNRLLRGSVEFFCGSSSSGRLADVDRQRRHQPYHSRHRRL
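Detergent-free condition (0.00005% Triton X-100) in acetate buffer pH 5.5 with DTT. 1.5 nM enzyme and compound were pre-mixed 15 min, then 2 uM Z-FR-AMC substrate added; reaction progress from fluorescence change between first and third reads (60 s).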
NS1 inh: influenza NS1 inhibition | 270,000 compounds, 0.4% hits | Potency, µM (titrated, usually from 46.1 µM), inactives show at the highest dose activity, positive = more growth | AID 2326 | S. cerevisiae slowed by influenza A NS1, growth recovery by OD600; further: actives are rising curves; nearly all actives have a fitted effect of over 50% in size
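OD600 was taken as the measure of yeast growth restored by compound in an NS1-expressing S. cerevisiae strain. Cells had been washed out of glucose medium and diluted 1:100 into galactose -URA medium, pH 6.0.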
Cruzain inh Det: cruzain (T. cruzi) inhibition with detergent. 200,000 compounds, 0.43% hits. AID 1478. purified cruzain, Z-FR-AMC fluorescence, 0.01% Triton. P25779. Potency, µM, inactives show max response, negative = inhibition, most hits filed as inhibitors; active means well fitted curve in the direction sought with a large enough effect; inconclusive means small, poorly fitted or top-dose-only effect, or another doubt; inactive means no such curve, though single readings can be large; an effect the other way counts as inactive or inconclusive;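 further: plate controls were neutral wells for no effect and buffer without enzyme for full effect; nearly all actives have a fitted effect of over 40% in size; top concentration of the series not given in the record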
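Enzyme 1.5 nM, Z-FR-AMC 2 uM, NaOAc 100 mM pH 5.5, DTT 5 mM, Triton X-100 0.01%; 15 min RT compound preincubation; kinetic ex360/em450, 60 s delta.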
Marburg entry inh: inhibitors of Marburg virus binding or cell entry | Potency, µM (top dose mostly 37.8 µM), without a hit: at the top dose activity change, negative = inhibition, actives largely listed as inhibitors | Marburg virus pseudotyped entry inhibition, cell reporter; control for the full effect not named in the record; about a third of the inactives were read at about 46 µM | 300,000 compounds, 1.8% hits; active = well fitted inhibition curve with a large enough effect; inconclusive = small, poorly fitted or top-dose-only effect, or effect the other way; inactive = flat fitted curve, though single readings scatter; tested in HEK293 cells; about a fifth of its hits are not listed in these tables; further: on the % scale 0 is the no-effect control and ±100 the full control effect; luciferase read-out
SARS PLpro yeast: inhibitors of SARS-CoV papain-like protease in yeast | S. cerevisiae expressing SARS-CoV PLpro, growth rescue; control for the full effect not named in the record | Potency, µM (highest dose often 32.9 µM), without a hit: at the top dose activity, positive = growth rescue | 330,000 compounds, 0.19% hits | AID 485353; further: 0% is about no effect; nearly all actives have a fitted effect of over 55% in size; growth read by luminescence after 48 h
RE007 growth inh: less growth of the S. pombe RE007 Vpr strain | S. pombe RE007 Vpr strain, BacTiter-Glo ATP luminescence, 24 h; control for the full effect not named in the record | Potency, µM (titrated, usually from 92.2 µM), for the others: at the highest dose activity change, negative = less growth | 360,000 compounds, 0.21% hits | AID 651644; active = well fitted falling curve with a large enough effect; inconclusive = small, poorly fitted or top-dose-only effect; inactive = no such curve, though single readings can be large or run the other way;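 further: on the % scale 0 is the no-effect control and ±100 the full control effect; nearly all actives have a fitted effect of over 50% in size; the assay follows cell death caused by Vpr and the record does not say whether a fall means rescue or toxicity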
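Fission yeast RE007 carrying one integrated HIV-1 vpr copy, seeded at OD 0.01 in PMG+AL medium with 23 nL pinned compound. Grown 24 h at 30 degrees; viability read by BacTiter-Glo luminescence after 5 min.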
* marks the source's active call; other numbers are inactive results; ? = inconclusive; nt = not tested or not shown; & = joins results of further samples; [ ] = remark or other dose. Unless noted, the call rests on the fitted dose curve; in most records, active means well fitted rising curve with a large enough effect; inconclusive means small, poorly fitted or top-dose-only effect; inactive means no such curve, though single readings can be large or run the other way. Potency means the concentration at half of the fitted maximal effect.

SMILES	2A StopGo	LASV entry inh	Cruzain noTriton	NS1 inh	Cruzain inh Det	Marburg entry inh	SARS PLpro yeast	RE007 growth inh
O=C(CNS(=O)(=O)c1ccc2ccccc2c1)NCCc1ccccn1	12%	17%	nt	0%	nt	-10%	-1%	1%
COc1ccc(S(=O)(=O)NN(C)c2nc(C(F)(F)F)nc3ccccc23)cc1	-6%	-4%[46.1 µM]	nt	nt	nt	?	0%	-10%
O=C1N[C@@H](Cc2cnc[nH]2)C(=O)N2CCC[C@@H]12	-15%	4%	-9%	4%	4.1%	13%	4%	-7%[18.4 µM]
CCCn1c(N)c(C(=O)COC(=O)CCS(=O)(=O)c2ccc(C)cc2)c(=O)[nH]c1=O	-26%	-3%	nt	0%	nt	17%	0%	-10%
CC(=O)OCC1=C(C(=O)O)N2C(=O)C(NC(=O)c3ccc(F)cc3)C2SC1 (configuration not stated)	-1%	1%	nt	nt	nt	6%	0%	-1%
COC(=O)Cc1c(C)nc2nc(NCc3ccc(Cl)cc3)[nH]n2c1=O	21%	1%	10%	?	-3.0%	16%	5%	0%
CN1CCN(CC(=O)Nc2ccc(Oc3ccccc3)cc2)CC1	1%	-5%	11%	2%	8.5%	?	0%	13%
CCc1ccccc1NC(=O)CN1C(=O)c2ccccc2S1(=O)=O	12%	1%	nt	-8%	nt	1%[46.1 µM]	3%	11%
COc1ccc(NC(=O)N2CCOc3ccc(Cl)cc32)cc1	15%	?	12%	nt	-7.2%	nt	nt	nt
O=C(COC(=O)c1ccccc1)Nc1ncc([N+](=O)[O-])s1	11%	?	nt	nt	nt	-18%	-41%	-22%
O=C(CN1CCN(Cc2ccccc2Cl)C1=O)NCCCN1CCOCC1	-24%	nt	nt	1%	nt	nt	-1%	8%
O=C(CSc1nnc(-c2ccc(Cl)cc2)o1)Nc1ccc(F)cc1	0%	?	18%	nt	-0.8%	0%[46.1 µM]	nt	nt
O=C(NCc1ccco1)c1ccc2c(=O)n(-c3ccccc3)c(=O)n(Cc3cccc(F)c3)c2c1	nt	7%	-6%	-12%	-6.0%	33%	7%	nt
O=C(O)c1ccc(C(=O)c2ccc3c(c2)C(=O)N(CCO)C3=O)cc1	31%[activator]	5%	nt	8%	nt	3%[46.1 µM]	0%	-17%
CN(CCCNC(=O)c1cccn2c(=O)c3ccccc3nc12)Cc1ccccc1	?	-6%	-3%	3%	-2.6%	?	-2%	-11%
COc1ccc(-c2oc3ncn4nc(-c5cccc(C)c5)nc4c3c2-c2ccc(OC)cc2)cc1	-14%	10%[46.1 µM]	-5%	nt	-3.7%	2%[46.1 µM]	nt	nt
Cc1cccc(N2CCN(C(=O)c3cccc(S(=O)(=O)N4CCOCC4)c3)CC2)c1C	?	?	nt	nt	nt	?	-5%	1%
COc1ccc(CNc2nc(=S)[nH]c3cc(OC)c(OC)cc23)cc1	2%	nt	nt	1%	nt	nt	1%	-1%
CNCC(=O)Nc1c(C)n[nH]c1C	7%	16%	0%	2%	-2.4%	16%	?	4%
CCCN1C(=O)CC(Sc2ncccc2C(=O)O)C1=O (configuration not stated)	-18%	nt	nt	1%	nt	-3%	-2%	3%
CCOc1ccc(-c2nnc3ccc(SC(C)C)nn23)cc1	?	nt	nt	9%	nt	nt	-1%	-4%
Cc1nnc(SCc2nc3sc(C(=O)O)c(C)c3c(=O)[nH]2)s1	-9%	-9%	nt	-4%	nt	-3%[46.1 µM]	0%	4%
COc1ccccc1CNC(=O)c1ccc(-c2ccccc2)cc1	37%[activator]	-3%[46.1 µM]	-5%	9%	-2.3%	?	16%	14%
O=C(NCc1ccccc1)c1ccccc1C(=O)c1ncc[nH]1	-2%	-18%	nt	2%	nt	7%[46.1 µM]	0%	8%
COc1ccc(CCn2nnnc2C(CC(C)C)N2CCC(C(N)=O)CC2)cc1OC (configuration not stated)	14%	-2%	4%	-2%	1.8%	8%	3%	-2%

(list continues)
SMILES	2A StopGo	LASV entry inh	Cruzain noTriton	NS1 inh	Cruzain inh Det	Marburg entry inh	SARS PLpro yeast	RE007 growth inh
O=C(O)c1ccccc1Nc1ccc([N+](=O)[O-])c2nonc12	-13%	?	nt	6%	nt	?	-2%	-19%
CCOC(=O)c1c(NC(=O)CSc2nnc(CNC(=O)c3ccco3)n2C)sc2c1CCC2	-5%	-27%	?	-24%	-3.4%	?	-1%	13%
COc1ccc(NC(=O)c2c(-c3ccccc3)c(-c3ccccc3)nn(C)c2=O)c(OC)c1	-23%	-2%[46.1 µM]	17%	nt	-1.6%	?	nt	nt
Cc1ccc(-c2csc(N3CCC(C(N)=O)(N4CCCCC4)CC3)n2)cc1	?	nt	2%	-24%	-7.3%	nt	-6%	2%
Cc1ccc(SCC(=O)NC2CCCCCC2)cc1	40%[activator]	16%	nt	-11%	nt	?	1%	-4%
Cn1c(SCCCC(=O)c2ccc(F)cc2)nnc1-c1ccncc1	?	7%	0%	-12%	-3.0%	3%	3%	-7%
Cc1ccc(N(C(=O)c2snc(C(N)=O)c2N)C(C(=O)NCC2CCCO2)c2c[nH]c3ccccc23)cc1 (configuration not stated)	12%	?	nt	0%	nt	?	4%	15%
CCO[C@H]1OC(C(=O)N2CCN(Cc3ccc4c(c3)OCO4)CC2)=C[C@@H](C)[C@@H]1CCCO	3%	nt	nt	0%	nt	nt	-1%	-4%
COc1ccccc1CNC(=O)C1CC(c2cccc([N+](=O)[O-])c2)=NO1 (configuration not stated)	3%	nt	-3%	-19%	-1.0%	nt	?	1%
CCn1c(COc2ccccc2)nnc1SCC(=O)CC(=O)Nc1ccccc1OC	-7%	-8%	26%	?	-4.7%	14%	3%	8%
CCOc1ccc(NC(=O)Cn2c(=O)n(CCc3ccccc3)c(=O)c3c4c(sc32)CN(C(C)=O)CC4)cc1	-22%	nt	?	nt	-5.2%	-25%[46.1 µM]	nt	nt
CN(c1ncc(C(F)(F)F)cc1Cl)N1C(=O)C2ONC3(C(=O)CC(C)(C)CC3=O)C2C1=O (configuration not stated)	-9%	0%	nt	nt	nt	-1%[46.1 µM]	2%	-6%
CCN1C(C(=O)c2ccccc2)=C(OC(=O)COc2ccc(OC)cc2)c2ccccc2S1(=O)=O	-11%	-6%[46.1 µM]	-15%	nt	-10%	26%[46.1 µM]	nt	nt
CCCN(C(=O)Cn1c(=O)oc2cc(Cl)ccc21)c1ccc(C(C)C)cc1	-12%	-19%[46.1 µM]	-1%	nt	-2.3%	-8%[46.1 µM]	nt	nt
COc1cccc(CCc2nnc(CCC(=O)NC(C)c3c(C)nn(C)c3C)o2)c1 (configuration not stated)	-3%	2%	nt	0%	nt	?	0%	0%
COC(=O)c1[nH]c2cc(OC)ccc2c1NC(=O)CCN1CCSCC1	5%	-22%	-2%	-7%	-0.5%	-1%[46.1 µM]	-7%	11%
CC12c3ccccc3C(c3ccccc31)C1C(=O)N(c3ccncc3)C(=O)C12 (configuration not stated)	-23%	?	nt	-5%	nt	?	-2%	4%
CCOc1ccc2c(c1)c(=O)c(S(=O)(=O)c1ccc(C)cc1)cn2Cc1ccccc1Cl	-8%	-23%[46.1 µM]	14%	nt	-4.1%	?	nt	nt
Cc1nsc(Nc2ccc([N+](=O)[O-])cc2)c1C#N	-9%	?	nt	0%	nt	?	0%	-11%
CCn1cc(C(=O)N2CCN(C3CCCCC3)CC2)c2cc(OC)c(OC)cc2c1=O	-2%	3%	-3%	3%	-1.2%	0%&-4%	0%	-24%
CC1(C)Oc2ccc3ccc(=O)oc3c2/C(=C/O)C1=O	-7%	6%	nt	21%	nt	24%	-3%	-21%
Cc1cc(/C=N/NC(=O)c2cccs2)c(C)n1-c1ccccc1	13µM*	2.1µM*	?	-57%	-4.6%	?	-10%	-9%
OCCC1CN(Cc2cccn2-c2ncccn2)CCN1Cc1ccc(F)cc1 (configuration not stated)	-12%	3%	nt	2%	nt	-19%[46.1 µM]	1%	11%
O=C(O)c1ccc2c(=O)n(-c3ccc(F)c(Cl)c3)c(=S)[nH]c2c1	-1%	0%	nt	3%	nt	-5%[46.1 µM]	1%	-6%
COCCNc1nnnc2c1sc1nc(N3CCOCC3)c3c(c12)CC(C)(C)OC3	-24%	-7%	nt	nt	nt	9%	-1%	4%

Following part
SMILES	2A StopGo	LASV entry inh	Cruzain noTriton	NS1 inh	Cruzain inh Det	Marburg entry inh	SARS PLpro yeast	RE007 growth inh
CC(=O)Nc1ccc(S(=O)(=O)NCC(=O)OCC(=O)NC23CC4CC(CC(C4)C2)C3)cc1	-15%	12%	11%	-5%	-4.3%	?	-17%	2%
COc1ccccc1C(=O)Nc1ccnn1C1CCN(C2CCSCC2)CC1	0%	-5%	nt	3%	nt	?	8%	4%
CCCc1ccc(-c2c(C)sc(N)c2C#N)cc1	8%	?	-17%	-56%	-14%	-9%	-10%	0%
Cc1cc(C#N)c(C)n1-c1cc(S(=O)(=O)N2CCOCC2)ccc1N1CCCC1	-18%	-7%	-9%	2%	-6.5%	?	nt	-13%
Cc1c(C(c2ccccc2Cl)c2c(O)c3ccccc3oc2=O)c(=O)n(-c2ccccc2)n1C (configuration not stated)	48%[activator]	?	?	?	-10%	?	-14%	-12%
Nc1c(C(=O)NCCCc2ccccc2)c2nc3ccccc3nc2n1Cc1cccs1	11%	2%	6.3µM*	25%	5.8%	?	-8%	4%
COC(=O)NCCOc1nc(N(C)C)nc(N(C)C)n1	-5%	6%	-6%	1%	-0.8%	-2%	6%	1%
CCc1cc(C(=O)c2ccc(Br)cc2)c(NC(=O)CN(CC)CC)s1	-2%	nt	nt	-12%	nt	nt	7%	-29%
O=C(NCCCN1CCOCC1)c1ccc(Sc2cccc(Cl)c2)c([N+](=O)[O-])c1	?	?	22%	6%	1.7%	2%	-22%	34%
O=C(Nc1ccccc1F)Nc1cc(S(=O)(=O)N2CCOCC2)ccc1N1CCCC1	15%	?	nt	nt	nt	-14%	-3%	-11%
CN(C)CCNC(=O)/C(=C/c1ccc(-c2ccc(Cl)cc2Cl)o1)NC(=O)c1ccccc1	?	?	?	9%	?	6.3µM*	-11%	24%
